# Compound activity: PubChem, several laboratories
# Arbovirus anti = antivirals against arbovirus infection, primary screen, cell-based, full library, 10K replicate subset; arbovirus infection cell-based antiviral screen; inhibition, % at 10 µM; actives 0.37% (n = 200,000); AID 1251, 2008;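 active = inhibition from about 30%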;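 note: bluetongue infection of BSR cells; cell survival read as ATP light after 72 h; 0% = infected wells without compound and 100% = uninfected wells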
# YopH PTP inh = YopH tyrosine phosphatase inhibitors, primary screen, biochemical, fluorescence Ex485/Em525; inhibition, %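 (about 10 µM by stock and volumes)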; YopH tyrosine phosphatase [Yersinia enterocolitica]; actives 0.16% (n = 140,000);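 active = inhibition of 50% or more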;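 note: controls were vehicle for no effect and minimum signal wells for full effect; inactives centre near -20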
# Mtb bLac sens = beta-lactam sensitization of Mtb H37Rv, H37Rv; actives 0.27% (n = 330,000); inhibition, % at 25 µM; M. tuberculosis H37Rv growth with meropenem, percent inhibition; hits of this screen are not shown here; AID 434955, 2010;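 active = about 74% or more and at least 40 points above the plate without the antibiotic, then above 30% in a dose series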;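 note: growth measured after seven days incubation then overnight dye step; 0% = bacteria only wells and 100% = bacteria with antibiotic; twin plates without the antibiotic show which effects depend on it; some results filed as inactive read as strong as hits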
# Mtb H37Rv = M. tuberculosis H37Rv growth inhibitors, H37Rv strain (AID 1626). M. tuberculosis H37Rv growth inhibition; higher % means a stronger effect. one-dose inhibition, % at 10 µM; IC50 in µM for titrated hits. actives 0.95% (n = 220,000);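 active = confirmed in a dose series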;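 note: bacteria incubated seven days before Alamar blue readout; 0% = bacteria only wells and 100% = bacteria with antibiotic wells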
# RecA intein inh = Mtb RecA intein splicing inhibitors, primary screen, biochemical, fluorescence, HTS. cell-free RecA intein splicing. actives 0.75% (n = 290,000). inhibition, %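 (about 9 µM by stock and volumes)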; in the data active = inhibition above about 30%;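 note: 0% = vehicle wells and 100% = reference inhibitor control wells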
# Target sequence (P9WHJ3 whole entry, looked up): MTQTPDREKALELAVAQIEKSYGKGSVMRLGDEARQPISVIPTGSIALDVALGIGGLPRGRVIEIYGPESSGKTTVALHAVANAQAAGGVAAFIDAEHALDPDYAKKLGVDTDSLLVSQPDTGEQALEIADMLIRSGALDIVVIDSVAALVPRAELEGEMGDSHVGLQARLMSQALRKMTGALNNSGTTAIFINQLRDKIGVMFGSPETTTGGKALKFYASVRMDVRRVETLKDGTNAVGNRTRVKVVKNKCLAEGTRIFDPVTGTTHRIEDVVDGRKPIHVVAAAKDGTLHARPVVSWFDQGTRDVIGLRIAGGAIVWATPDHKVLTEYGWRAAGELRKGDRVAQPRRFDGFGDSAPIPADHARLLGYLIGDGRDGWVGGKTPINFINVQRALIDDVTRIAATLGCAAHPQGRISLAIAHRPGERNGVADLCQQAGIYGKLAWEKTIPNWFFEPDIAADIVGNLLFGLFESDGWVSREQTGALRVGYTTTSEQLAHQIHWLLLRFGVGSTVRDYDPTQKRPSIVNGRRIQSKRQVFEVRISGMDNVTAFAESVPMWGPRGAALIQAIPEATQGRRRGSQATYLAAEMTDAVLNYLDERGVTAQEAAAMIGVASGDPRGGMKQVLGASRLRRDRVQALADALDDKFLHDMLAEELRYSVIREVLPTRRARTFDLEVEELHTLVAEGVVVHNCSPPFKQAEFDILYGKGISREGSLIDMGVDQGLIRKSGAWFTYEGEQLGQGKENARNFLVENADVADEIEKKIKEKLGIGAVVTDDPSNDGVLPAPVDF
# Arbovirus anti repeat = recorded beside Arbovirus anti, whose call it bears; inhibition, %; measured here: 10K subset replicate screen; many hits read low in the repeat;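 first of two repeat runs on a subset; 0% = infected and 100% = uninfected wells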
# * = called active by the depositor; . = no result given. This is a subset, so the mix of outcomes need not match the whole.
SMILES,Arbovirus anti,YopH PTP inh,Mtb bLac sens,Mtb H37Rv,RecA intein inh,others
COc1ccc(-c2cn3c(C)c(C(=O)Nc4ccncc4)sc3n2)cc1,1,-5,-1,16%,-3.9,Arbovirus anti repeat=1
CC(CCc1ccccc1)NC(=O)C(C)OC(=O)c1ccco1 (stereo not drawn),.,.,3,.,-4.3,
CN(CC(=O)NNC(=O)CNC(=O)c1cccs1)S(=O)(=O)c1ccc(Cl)cc1,.,.,-11,.,-1.1,
COc1ccc(C=C2C=C(C(C)(C)C)C(=O)C(C(C)(C)C)=C2)cc1OC,.,.,100,.,7.9,
COc1ccc(CC(=O)Nc2c3c(nn2C(C)(C)C)CS(=O)C3)cc1 (stereo not drawn),5,-11,-5,-6%,2.2,Arbovirus anti repeat=2
CCc1noc(C)c1C(=O)NC1CCCc2c1cnn2-c1ccc(C(C)(C)C)cc1 (stereo not drawn),.,.,-2,.,0.2,
CNS(=O)(=O)c1ccc2c3c(cccc13)C(=O)N2,.,.,-4,.,-154,
CN1C(=O)N(C)C(c2ccccc2Cl)C2=C1CC(C)(C)CC2=O (stereo not drawn),.,.,-4,.,0.7,
COC(=O)c1ccccc1N/C=C/C(=O)c1ccc(Br)cc1,63*,-9,94,17%,-2.9,
Cc1ccc(-c2nc(NCCN(C)C)c3ccccc3n2)cc1,.,.,8,.,-2.1,
O=C(NCc1ccc2c(c1)OCO2)c1ccc(NS(=O)(=O)c2ccc3c(c2)OCCO3)cc1,0,-23,10,5%,0.3,
O=C(NC1CCN(S(=O)(=O)c2ccccc2)CC1)c1ccc(F)cc1,.,.,7,.,-3.0,
Cc1noc(C(F)(F)F)c1C(=O)NNC(=O)c1cccc(C(F)(F)F)c1,.,.,1,75%,-2.9,
CCCCn1c(N)c(N(CCOC)C(=O)C2CCN(C(=O)c3ccc(Cl)cc3)CC2)c(=O)[nH]c1=O,.,.,-3,.,-2.0,
Cc1ccc(NC(=O)CSCC(=O)Nc2ccccc2C(=O)N2CCCCC2)cc1,.,.,-10,.,-0.8,
CC(C)(Oc1ccc(Cl)cc1)C(=O)OCC(=O)Nc1ncc(Cl)cc1Cl,5,1,-3,-1%,6.8,
CCOc1nc(C)cc(C)c1S(=O)(=O)c1cccc(Cl)c1,.,.,3,.,7.2,
C/C(CCc1ccc2c(c1)OCO2)=N\NC(=S)NC(C)C,-9,.,94,-3%,1.5,
CCC(C)C(NC(=O)C1CCC(C)CC1)C(=O)Nc1ccc(OC)cc1OC (stereo not drawn),-1,.,-3,-8%,6.0,
CCOC(=O)C[C@H]1c2cc(F)ccc2S(=O)(=O)N1c1cccc(OC)c1,.,.,0,-1%,0.6,
CSc1ccc(/C=N/NC(=O)c2cccs2)cc1,.,.,-9,-6%,-0.1,
O=C(/C=C/c1ccc(Cl)cc1)NCc1ccncc1,3,-26,6,8%,1.8,
Cc1cccc(C)c1OCC(=O)Nc1ccccc1C(F)(F)F,-2,.,1,-2%,0.1,
Cc1ccc(NC(=O)CCn2cnc3ccccc3c2=O)cc1,6,.,0,1%,-0.2,
COc1ccc(NC(=O)CN(C)S(=O)(=O)c2ccc3c(c2)CC(C)N3C(C)=O)c(OC)c1 (stereo not drawn),.,.,1,.,0.2,
CCOC(=O)c1[nH]c2ccc(OC)cc2c1NC(=O)CCN1CCSCC1,-1,-19,-10,-2%,5.2,
CC(C)(C)n1nnnc1C(c1cccnc1)N(Cc1ccccc1)Cc1ccco1 (stereo not drawn),-6,-21,-5,.,10,
CC(C)NC(=O)NC(=O)COC(=O)c1ccc(NC(=O)CC#N)cc1,9,-15,-13,5%,-0.4,
COc1ccccc1C1=NCc2nnc(CSC)n2-c2ccc(Cl)cc21,.,.,-2,.,1.1,
CCOC(=O)c1cc(C)nc(Sc2ccc(C)cc2)c1C#N,.,.,100,13µM*,2.9,
Cc1cc(SCC(=O)N2CCCC2=O)nc2c(C)cccc12,.,.,1,.,0.9,
O=C(O)CCC(=O)Nc1cccc2cccnc12,7,.,3,-7%,0.9,
O=C(CCSCc1ccccc1F)N1CCN(c2ccccn2)CC1,3,11,1,3%,0.4,
O=C(Nc1ccn(Cc2c(F)c(F)c(F)c(F)c2F)n1)c1ccc(COc2ccccc2Cl)cc1,-6,-19,-7,0%,1.7,
CCC(C)NC(=O)C1CCN(C(=O)c2ccccc2)CC1 (stereo not drawn),6,-25,7,.,.,Arbovirus anti repeat=2
Cc1ccc(S(=O)(=O)N2CCC(C(=O)NCc3cccnc3)CC2)cc1,5,2,-3,4%,-1.3,
O=C(Nc1ccc(N2CCN(c3ccccc3)CC2)c(F)c1)C1CC1,2,.,2,6%,1.4,
O=C(c1ccoc1)N1CCC2(CC1)Oc1ccc(Cl)cc1C(=O)C21CC(c2ccc(Cl)cc2)=NO1 (stereo not drawn),.,.,-1,27%,5.0,
COc1ccccc1N1CCN(c2ccnc3cc(Cl)ccc23)CC1,.,.,16,.,6.2,
CC1CCCN(c2nc3ccsc3c(=O)s2)C1 (stereo not drawn),12,-31,-13,5%,-2.0,
CC1CCCN(C(=O)COC(=O)c2n[nH]c3ccccc23)C1 (stereo not drawn),8,-42,-8,-1%,1.7,
OCCC1CN(Cc2cccn2-c2ccccn2)CCN1Cc1ccccc1 (stereo not drawn),6,.,-10,7%,-2.4,
Cc1ccc(F)c(NC(=O)c2c(-c3ccccc3)noc2C)c1,.,.,10,.,0.0,
O=C(NCc1cccc(C(F)(F)F)c1)c1ccc(=O)[nH]c1,.,.,-6,.,-3.5,
CCOC(=O)c1c(C)n(C)c2cc(-c3ccc(F)cc3)c(O)cc12,6,-24,0,-5%,-1.1,

# Arranged by number of heavy atoms (low to high): five of the compounds above
SMILES,Arbovirus anti,YopH PTP inh,Mtb bLac sens,Mtb H37Rv,RecA intein inh,others
CC1CCCN(c2nc3ccsc3c(=O)s2)C1 (stereo not drawn),12,-31,-13,5%,-2.0,
O=C(O)CCC(=O)Nc1cccc2cccnc12,7,.,3,-7%,0.9,
Cc1cc(SCC(=O)N2CCCC2=O)nc2c(C)cccc12,.,.,1,.,0.9,
O=C(CCSCc1ccccc1F)N1CCN(c2ccccn2)CC1,3,11,1,3%,0.4,
O=C(Nc1ccn(Cc2c(F)c(F)c(F)c(F)c2F)n1)c1ccc(COc2ccccc2Cl)cc1,-6,-19,-7,0%,1.7,

# Molecules from the list above containing two or more sulfur atoms, in the order listed:
SMILES,Arbovirus anti,YopH PTP inh,Mtb bLac sens,Mtb H37Rv,RecA intein inh,others
CN(CC(=O)NNC(=O)CNC(=O)c1cccs1)S(=O)(=O)c1ccc(Cl)cc1,.,.,-11,.,-1.1,
CSc1ccc(/C=N/NC(=O)c2cccs2)cc1,.,.,-9,-6%,-0.1,
CC1CCCN(c2nc3ccsc3c(=O)s2)C1 (stereo not drawn),12,-31,-13,5%,-2.0,

# More records follow.
SMILES,Arbovirus anti,YopH PTP inh,Mtb bLac sens,Mtb H37Rv,RecA intein inh,others
CC1CN(S(=O)(=O)c2ccc(C(=O)NCCCn3ccnc3)cc2)CC(C)O1 (stereo not drawn),10,.,-10,8%,-1.5,
COc1cc(OC)cc(C(=O)Nc2ccc(S(=O)(=O)N(C)C)cc2)c1,8,-29,-10,3%,2.2,
FCCCOc1ccc(CN2CCN(c3ccccc3F)CC2)cc1,12,.,-6,7%,0.8,
Cc1cc(C(F)F)n2ncc(C(=O)N3CCCCC3)c2n1,4,-14,-3,2%,-1.4,
Clc1cccc(CON/C=N/c2ncnc3sccc23)c1,-12,-13,12,11%,8.8,
Cc1ccc2oc(=O)n(CCCOc3ccccc3C)c2c1,-10,.,2,10%,.,
Cc1c(NC(=O)C(C)OC(=O)c2cc(Cl)nc(Cl)c2)c(=O)n(-c2ccccc2)n1C (stereo not drawn),4,-30,8,7%,0.4,
Cc1csc(NC(=O)c2nc3nccc(C)n3n2)n1,-5,-13,4,5%,1.8,
Cn1c(=O)c2cc(S(=O)(=O)N3CCN(c4cccc(C(F)(F)F)c4)CC3)ccc2n(C)c1=O,-3,-22,0,.,.,
COc1ccccc1NC(=O)N(c1c(N)n(Cc2ccccc2)c(=O)[nH]c1=O)C1CCCC1,8,-34,7,-1%,-11,
CCOC(=O)c1ccc2c(c1)N(CC#N)C(=O)C(C)(C)O2,3,.,2,0%,-1.2,
COc1ccccc1CN1CCCC(N2CCN(c3ccccc3OC)CC2)C1 (stereo not drawn),.,.,3,.,0.9,
COc1ccc(NC(=S)N(CCN(C)C)C(C)c2ccncc2)cc1Cl (stereo not drawn),.,.,-11,73%,3.2,
O=C(CSc1nnc(COc2ccc(Br)cc2)o1)N1CCOCC1,3,.,11,-6%,2.0,
CCOC(=O)c1ccccc1NC(=O)c1ccccc1SC,1,14,2,13%,2.3,

# Two entries drawn at random from those above, as already listed:
SMILES,Arbovirus anti,YopH PTP inh,Mtb bLac sens,Mtb H37Rv,RecA intein inh,others
CC1CN(S(=O)(=O)c2ccc(C(=O)NCCCn3ccnc3)cc2)CC(C)O1 (stereo not drawn),10,.,-10,8%,-1.5,
CCOC(=O)c1ccccc1NC(=O)c1ccccc1SC,1,14,2,13%,2.3,

# The listing continues:
SMILES,Arbovirus anti,YopH PTP inh,Mtb bLac sens,Mtb H37Rv,RecA intein inh,others
O=C(/C=C/c1ccc(OCc2c(F)cccc2Cl)cc1)N1CCOCC1,2,.,15,21%,5.7,
COc1ncnc(OC)c1NC(=O)c1ccc(F)cc1,2,-36,-7,2%,0.3,
C=CCN1C(=O)C(Cc2ccc(OCC)cc2)S/C1=N\N=C\c1cccs1 (stereo not drawn),-6,-6,-8,8%,-0.7,
CC1Nc2ncnc(N3CCOCC3)c2N(Cc2ccccc2)C1=O (stereo not drawn),.,.,-19,.,0.4,
CN(CC(=O)Nc1ccc(Cl)c(C(F)(F)F)c1)C(=O)Cc1n[nH]c(=O)c2ccccc12,.,.,4,.,5.3,
Cc1cc(C)c(C)c(S(=O)(=O)Nc2ccccc2C(=O)O)c1C,17,.,7,4%,-2.6,
O=C(NC1CCCCC1)C(c1ccco1)N(C(=O)c1csnn1)C1CCCC1 (stereo not drawn),2,-33,-6,.,1.4,
Cc1cccc(Nc2nc(-c3sc(C)nc3C)cs2)c1,.,.,78,.,-3.0,
COc1ccc(-n2c(SCC(N)=O)nnc2-c2ccco2)cc1,.,.,-20,.,-0.3,
CC(=O)c1cnc2c(C(=O)O)cnn2c1C,-4,-3,2,2%,0.7,
C=CCOc1cccc(C2/C(=C(\O)c3ccc4c(c3)OCCO4)C(=O)C(=O)N2Cc2cccnc2)c1 (stereo not drawn),.,.,-2,.,2.0,
CCOC(=O)c1ccc(NC(=O)NCCc2cnc[nH]2)cc1,.,.,-14,.,1.2,
Cc1ccc(S(=O)(=O)N(C)C)cc1NC(=O)CSc1nnnn1-c1ccc(O)cc1,.,.,1,-8%,2.2,
CN(C)CCC(=O)N1c2ccccc2Sc2ccc(Cl)cc21,13,.,-8,-7%,-3.5,
Cc1cccc(C=Nc2ccc3c(c2)oc2ccccc23)c1O,-9,-26,97,1.1µM*,1.5,
COc1cc(C=C2C(=O)OC(c3ccccc3)OC2=O)cc(Br)c1O (stereo not drawn),3,.,6,1%,-0.7,
COc1cccc(-c2c(C(=O)N/N=C/c3ccc(C)s3)nnn2-c2nonc2N)c1,.,.,4,.,0.7,
O=S(=O)(Nc1ccc(Cl)cn1)c1cccc(S(=O)(=O)c2ccccc2)c1,14,.,0,-6%,-0.3,
CCOc1ccccc1NC(=S)N(CCC(C)C)C1CCN(C(C)=O)CC1,7,.,-6,2%,-2.2,
CCN(CC)C(=O)Nc1ccc(C(=O)OC)cc1,-1,-15,2,-8%,3.2,
CC(C)COC(=O)C(C#N)c1nc2ccccc2nc1N1CCN(Cc2ccccc2)CC1 (stereo not drawn),3,-23,33,19%,0.6,
COc1ccc(N2CCN(C(=O)CN(Cc3ccccc3)S(C)(=O)=O)CC2)cc1,4,6,2,1%,-0.3,
O=C(CN1CCOCC1)NCCC12CC3CC(CC(C3)C1)C2,6,-6,-7,2%,4.4,
Cc1cc(NC(=O)CCC(=O)N(c2ccccc2)C(C(=O)NC2CCCC2)c2ccccc2)no1 (stereo not drawn),3,-2,-5,1%,-0.5,
